Source: PubChem
Bfl-1 A1 inh: inhibitors of the anti-apoptotic protein A1, read as caspase activation | MEF A1-2A-BIM cells, Caspase-Glo 3/7 luminescence, 3 h; percent of clofoctol response, vehicle zero | caspase activation, % (concentration not given with the values) | 0.066% of 330,000 active | AID 2462;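 active means over half of replicate activation scores above 10%, or exactly half above 10 with the replicate mean above 10; inconclusive means replicate mean below 10 yet half the replicates above 10; inactive means over half of replicates below 10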;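 further: wells of about 30 µL received 50 nL stock; many hits fall short of the cut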
LANA-H2A inh: blocks KSHV LANA binding to histone H2A/H2B | Q9QR71 | cell-free LANA-H2A/H2B peptide, fluorescence polarization | inhibition, % (test concentration not listed) | 0.6% of 320,000 active | AID 2629; in the data active means inhibition mostly above about 10%, no sharp cut-off; inactive means mostly below about 6.7%;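 further: stock transfer was 7.5 nL into about 10 µL; 0% = median of vehicle wells and 100% = median of positive control wells; one replicate is shown; the record names a cut of 25% in any replicate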
Target sequence (Q9QR71 whole entry, looked up): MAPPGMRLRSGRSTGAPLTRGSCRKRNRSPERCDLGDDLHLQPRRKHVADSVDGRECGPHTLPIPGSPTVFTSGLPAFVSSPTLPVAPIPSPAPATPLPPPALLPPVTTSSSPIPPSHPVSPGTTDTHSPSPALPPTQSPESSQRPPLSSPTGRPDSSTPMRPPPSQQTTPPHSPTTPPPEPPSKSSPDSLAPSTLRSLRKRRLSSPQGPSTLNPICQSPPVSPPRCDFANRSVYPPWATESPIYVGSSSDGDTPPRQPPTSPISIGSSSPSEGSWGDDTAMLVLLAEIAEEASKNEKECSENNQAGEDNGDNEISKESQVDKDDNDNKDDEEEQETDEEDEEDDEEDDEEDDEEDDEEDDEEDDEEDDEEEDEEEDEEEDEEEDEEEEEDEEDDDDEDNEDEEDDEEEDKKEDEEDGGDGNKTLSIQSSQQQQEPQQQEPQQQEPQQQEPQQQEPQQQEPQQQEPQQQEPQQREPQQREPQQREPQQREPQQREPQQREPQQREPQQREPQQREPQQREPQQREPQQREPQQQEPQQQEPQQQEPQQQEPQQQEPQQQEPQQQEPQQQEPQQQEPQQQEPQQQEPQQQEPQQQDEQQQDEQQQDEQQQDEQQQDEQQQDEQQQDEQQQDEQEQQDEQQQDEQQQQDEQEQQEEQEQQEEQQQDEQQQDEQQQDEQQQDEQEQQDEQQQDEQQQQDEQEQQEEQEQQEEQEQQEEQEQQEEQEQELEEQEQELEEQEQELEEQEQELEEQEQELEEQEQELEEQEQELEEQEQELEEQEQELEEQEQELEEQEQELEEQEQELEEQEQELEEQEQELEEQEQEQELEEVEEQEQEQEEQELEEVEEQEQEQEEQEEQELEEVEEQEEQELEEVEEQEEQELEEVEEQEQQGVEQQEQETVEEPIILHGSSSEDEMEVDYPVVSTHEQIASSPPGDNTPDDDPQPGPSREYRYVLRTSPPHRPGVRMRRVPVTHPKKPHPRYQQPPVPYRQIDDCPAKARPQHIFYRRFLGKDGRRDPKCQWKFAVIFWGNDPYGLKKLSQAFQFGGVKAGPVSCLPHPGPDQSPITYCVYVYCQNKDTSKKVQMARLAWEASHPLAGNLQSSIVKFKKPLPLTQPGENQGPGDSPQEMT
ALR H2O2 inh: blocks human ALR sulfhydryl oxidase activity; inhibition, % (test concentration not listed); 3.8% of 290,000 active; P55789; purified ALR, DTT oxidation, H2O2 HRP-luminol luminescence;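 active means mean and each replicate at 75% or more; inconclusive means only one of the two met; inactive means neither met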;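 further: stock transfer was 7.5 nL into about 7.5 µL; 0% = neutral wells and 100% = wells with inactivated enzyme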
Calb FLC: C. albicans growth modulation with fluconazole; C. albicans CaCi-2 (fluconazole-resistant clinical isolate) + fluconazole, Alamar Blue growth, 48 h; growth inhibition, % (no concentration beside the values); 0.57% of 300,000 active; AID 1979;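 active means most replicates above 75%; inconclusive means exactly half above 75%; inactive means most below 75%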;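 further: all wells also contain fluconazole at 8 µg/ml as a sub-toxic cotreatment; 0% = median of DMSO wells and 100% = median of geldanamycin control wells; wells of about 8 µL received 7.5 nL stock; the first replicate is given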
Beta cell apopt: beta cell apoptosis inhibition; INS-1E cytokine-induced death, ATP luminescence, 48 h; percent of positive-control rescue, neutral wells zero; protection from apoptosis, % (test concentration not listed); 0.8% of 300,000 active; AID 435005;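 active means all replicates at 75% or more, or half of them and the mean; inconclusive means half reach 75% but not the mean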;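 further: 0% = cytokine-treated negative control wells and 100% = positive control rescue; higher means more ATP so stronger rescue from cytokine killing; wells of about 40 µL received 100 nL stock; the first replicate is given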
B2AR ag: agonists of human beta-2 adrenergic receptor inducing internalization; P07550; Am2.2-beta2AR cells, FAP receptor internalization, flow cytometry; reference of the scale not given here; response, % (no concentration beside the values); 0.43% of 340,000 active; AID 504454;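 active means response above a set limit, near 3 SD of response in nonfluorescent compounds, cut at about 42% in these data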;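 further: stock transfer was 100 nL into about 11 µL; a reference agonist was the positive control; negative values mostly stem from fluorescent compounds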
rRNA inh HTS: selective bacterial rRNA inhibition in E. coli; E. coli WT GFP vs humanized-ribosome RFP mutants, fluorescence, 24 h; active compounds read low; DMSO median 0, no signal -100; GFP signal change (wild-type ribosome), % (concentration not given with the values); 1.6% of 350,000 active; AID 720706;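 active means significant combined selectivity score with lowered wild-type GFP, culture density cut under 30%, mutant RFP and density less affected; inactive means any of these conditions unmet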; further: one replicate is shown; some compounds called inactive have numbers as strong as hits
T cruzi inh: T. cruzi replication inhibition | T. cruzi beta-gal in NIH3T3, luminescence, 90 h | inhibition, % (test concentration not listed) | 1.4% of 300,000 active | AID 1885;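 active means mean inhibition across valid replicates above about 55%, limit read from the data; inconclusive means mean below that limit but half or more replicates reach it; inactive means mean below it, under half of replicates reach it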;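 further: signal also drops with host cell toxicity which is not excluded here; 0% = plate median of DMSO wells and 100% = zero luminescence signal; higher percent means less beta-gal luminescence so fewer parasites; stock transfer was 50 nL into about 50 µL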
rRNA inh HTS OD600: recorded beside rRNA inh HTS, whose call it bears; OD600 change, %; measured here: OD600 growth;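 optical density of the mix in the first replicate; 0 = DMSO median and -100 = no signal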
rRNA inh HTS RFP: further read-out of rRNA inh HTS, marked with its call; RFP signal change, %; measured here: RFP humanized mutant strains;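 first replicate; 0 = DMSO median and -100 = no signal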
Numbers without * were called inactive; u = inconclusive; x = no result given. The list is partial (hit frequency here may not be typical).

SMILES	Bfl-1 A1 inh	LANA-H2A inh	ALR H2O2 inh	Calb FLC	Beta cell apopt	B2AR ag	rRNA inh HTS	rRNA inh HTS OD600	rRNA inh HTS RFP	T cruzi inh
CN(C)S(=O)(=O)c1cccc(NC(=O)C2CCN(S(=O)(=O)c3cccs3)CC2)c1	-1.5	1.3	3	x	-6	6	-8	-13	-0.7	x
COc1ccc(CCNC(=S)NC2CCN(Cc3ccccc3)CC2)cc1OC	-0.2	1.0	5	-3	-3	-4	16	10	2.0	19
Cc1cccc(NC(=O)Nc2cnccn2)c1C	0.5	-2.3	6	7	1	-7	10	5	0.7	2
O=C(OCC(=O)N1CCCC1)c1cccc(Br)c1	-1.0	1.6	-4	13	-6	2	-4	0	-1.1	-6
O=C(CNS(=O)(=O)c1ccc(Cl)c(C(F)(F)F)c1)NC1CCCCCC1	1.9	-1.3	x	x	0	2	-1	8	-1.1	x
O=C(O)c1cccc(CN2C(=O)S/C(=C/c3ccccc3[N+](=O)[O-])C2=O)c1	-0.1	-2.3	x	-1	-9	6	-22*	-8.2*	-0.2*	-9
O=c1cc(O)c2sc(Nc3cccc(C(F)(F)F)c3)nc2[nH]1	-0.6	0.4	7	-7	x	8	x	x	x	-8
CCOC(=O)c1[nH]c(C)c(C(=O)OCCOc2cccc(C)c2)c1C	-1.4	4.4	-22	-4	9	-6	x	x	x	16
Cc1ccc(S(=O)(=O)NC(=O)Nc2ncc3c(n2)CC(c2ccco2)CC3=O)cc1 (stereo not drawn)	0.3	-1.7	-4	x	-5	-8	16	4	0.3	-12
O=C1/C(=C/c2ccccc2O)SC(=S)N1Cc1cccnc1	-0.5	-0.5	0	26	7	4	7	18	4.6	3
S=C(NCc1ccccc1)NCc1cccc(CNC(=S)NCc2ccccc2)c1	-1.2	10	-6	-7	15	-10	x	x	x	22
CC1(C)C2CCC1(CS(=O)(=O)NCc1ccc(C(F)(F)F)cc1)C(=O)C2 (stereo not drawn)	0.2	1.3	x	7	x	6	-10	-18	2.0	-1
Cc1ccc(S(=O)(=O)CC(O)COc2ccc(C#N)cc2)cc1 (stereo not drawn)	0.6	-0.1	-1	0	-7	15	11	-7	2.5	-2
CN(C(=O)COC(=O)c1cccnc1Nc1cccc(C(F)(F)F)c1)C1CCS(=O)(=O)C1 (stereo not drawn)	-2.1	1.9	1	-33	x	-13	x	x	x	-8
O=S(=O)(Nc1ccc(-c2nc3ccccc3o2)cc1)c1ccccc1	-1.1	-4.4	3	23	2	-3	x	x	x	4
CCc1nnc(NC(=O)CN2CCN(Cc3cccc(Cl)c3)CC2)s1	-1.2	-5.3	1	-6	-2	-2	2	5	1.6	25
Cc1cc(C)cc(NC(=O)NC(C)C2CCCO2)c1 (stereo not drawn)	0.4	3.3	-3	-9	2	-6	5	2	-3.9	-2
CC#CC[N+](C)(C)CCCCCCCCCCCC	-0.2	1.6	-5	101*	104*	11	-59	-80	-21	73*
CC(=O)Nc1n[nH]c(S(=O)(=O)Cc2ccc(Cl)cc2Cl)n1	0.9	1.6	-3	6	2	-1	x	x	x	-3
Cc1cc(Oc2ccc(C#N)cc2)nc(NCc2ccccc2)n1	-3.0	-2.9	-21	-4	12	-12	x	x	x	14
CNS(=O)(=O)c1cccc(C(=O)OCC(=O)Nc2sc3c(c2C#N)CCCCC3)c1	0.3	5.2	2	-11	-1	-9	-15	-12	1.0	-2
CCc1nc(C)c(-c2ccccc2)c(=O)[nH]1	0.6	1.3	4	-4	x	6	x	x	x	-18
COc1ccc(C(=O)NCCc2ccccn2)cc1S(=O)(=O)Nc1ccc(Br)cc1	0.2	-2.0	2	x	-1	27	-20*	-12*	4.5*	x
CCCCNC(=O)C1Cc2cc(S(=O)(=O)N3CCCC3)ccc2N1C(C)=O (stereo not drawn)	0.3	1.9	2	11	0	4	4	9	-2.1	-6
O=C(CCC(=O)N1CCOc2ccccc21)NC1CCN(Cc2ccccc2)CC1	0.4	-0.1	5	-13	-3	32	0	9	-7.5	27
CC(=O)Nc1ccc(S(=O)(=O)NC2CC(=O)N(c3ccc(C)cc3)C2)cc1 (stereo not drawn)	-0.6	-6.6	-1	2	2	-12	-1	11	-2.4	0
CCc1cccc(C)c1NC(=O)C1CCCN1C(=O)NCc1ccccc1 (stereo not drawn)	-0.1	2.5	7	1	x	-1	2	11	2.4	-9
O=C(NNC1CC(=O)N(c2ccc(Cl)cc2)C1=O)c1ccccn1 (stereo not drawn)	-0.7	1.0	-10	29	1	5	15	15	2.2	-15
O=C(COc1ccc(Cl)cc1)NCc1nnc(SCC(=O)N2CCCc3ccccc32)o1	0.1	-0.7	-3	-2	-2	-5	x	x	x	7
CC(C)CC(C(=O)N1CCc2ccccc2C1)N1C(=O)c2ccccc2C1=O (stereo not drawn)	2.1	-0.4	-31	25	-5	4	x	x	x	20

Pulled one by one from above, two records:
SMILES	Bfl-1 A1 inh	LANA-H2A inh	ALR H2O2 inh	Calb FLC	Beta cell apopt	B2AR ag	rRNA inh HTS	rRNA inh HTS OD600	rRNA inh HTS RFP	T cruzi inh
CCc1cccc(C)c1NC(=O)C1CCCN1C(=O)NCc1ccccc1 (stereo not drawn)	-0.1	2.5	7	1	x	-1	2	11	2.4	-9
CCc1nc(C)c(-c2ccccc2)c(=O)[nH]1	0.6	1.3	4	-4	x	6	x	x	x	-18

Remaining list, next part:
SMILES	Bfl-1 A1 inh	LANA-H2A inh	ALR H2O2 inh	Calb FLC	Beta cell apopt	B2AR ag	rRNA inh HTS	rRNA inh HTS OD600	rRNA inh HTS RFP	T cruzi inh
CC(C)C(=O)Nc1sc2c(c1C(N)=O)CCN(Cc1ccccc1)C2	-0.1	3.2	5	-3	2	-8	-5	-3	-4.4	-14
CC1CCN(C(=O)COc2ccc(S(=O)(=O)N3CCCC3)cc2)CC1	-0.1	-3.8	x	-1	-6	2	2	-2	-2.0	4
COc1ccc(NC(=O)NNC(=O)c2cc3occc3n2C)c(OC)c1	0.6	2.8	69	3	4	-4	-1	3	0.2	1
Cc1cccc(N2CCN(c3nnnn3-c3ccccc3)CC2C)c1 (stereo not drawn)	0.8	3.4	27	-7	1	5	x	x	x	11
CC(C)(CNC(=O)c1ccc(-c2ccccc2Cl)o1)N1CCOCC1	0.0	2.7	0	8	2	0	-6	-6	-0.2	-6
CC(C)(O)C#Cc1ccc(CN2CCN(Cc3ccsc3)C(CCO)C2)cc1 (stereo not drawn)	-0.6	1.5	2	-2	-5	0	x	x	x	18
CS(=O)(=O)c1ccc(N2CCOCC2)c(S(C)(=O)=O)c1	-0.4	-9.7	-2	-19	5	-1	17	7	-6.8	-15
Cc1nn(-c2ccccc2)c2nc(C(F)(F)F)[nH]c(=O)c12	0.2	-3.3	-18	4	-2	1	-15	-14	-0.5	-38
O=C(CC1(C(=O)O)CCCC1)N1CCOCC1	1.7	1.2	-6	1	-2	-2	x	x	x	-19
CN1C(=O)[C@H]2[C@@H](C3CC3)N3C(=O)CN(CCO)C(=O)[C@@]3(Cc3ccccc3)[C@H]2C1=O	0.0	2.7	0	-6	-2	2	17	10	1.0	-21
Cc1oc(-c2ccccc2F)nc1CS(=O)CC(=O)NC1CC1 (stereo not drawn)	-0.1	3.6	99*	-15	-2	3	4	8	-0.5	-7
Cc1ccc(-c2nnn(CCC(=O)NC3CCCC3)n2)cc1	0.0	-0.6	-11	7	x	9	x	x	x	-5
O=C(Nc1ccccc1C(=O)N/N=C/c1ccc(O)cc1)c1ccccc1	-7.9	5.9	94*	-12	4	-1	-30*	-15*	-3.9*	1
O=C(c1ccc2c3c(cccc13)CC2)C1CCCN(C(=O)c2cc[n+]([O-])cc2)C1 (stereo not drawn)	0.0	0.3	-11	20	3	-1	-1	-15	-6.2	-17
COc1ccc(C(=O)Oc2ccc(F)cc2C(=O)/C=C/c2ccc(OC)c(OC)c2)cc1	1.1	-5.0	8	5	2	5	x	x	x	-13
COc1ccc(N2CCN(C(=O)CCc3nnc4ccc(N5CCCC5)nn34)CC2)cc1	-0.4	3.3	u	-10	5	-12	-8	-7	2.9	1
CCOC(=O)c1c(CN2CCN(C)CC2)n(-c2ccccc2)c2cc(Br)c(O)cc12	-0.3	-1.3	79*	-4	-6	28	4	-7	17	-6
O=c1oc2c3c(nn2c2ccccc12)CCCC3	-0.1	0.4	-7	-12	-5	2	4	5	-1.8	1
O=C(COC(=O)c1ccccc1F)c1ccc(-n2nncc2-c2ccco2)cc1	-0.5	0.0	5	2	-8	-3	x	x	x	-6
Cc1sc(NC(=O)CCC(=O)O)c(C#N)c1C	-1.1	5.6	17	9	-3	2	x	x	x	13
Cc1cc(NC(=O)Cn2nc3c(cc2=O)CCCC3)ccc1Br	0.6	0.8	-7	-1	-8	-1	x	x	x	-1
CC(C)OCC(O)CSc1ccccn1 (stereo not drawn)	0.2	-0.5	-3	6	-5	1	x	x	x	4
COc1ccc(Oc2ccc(S(=O)(=O)N3CCCCC3)cc2S(=O)(=O)N2CCCCC2)cc1	0.1	0.0	-3	0	7	11	7	2	1.9	43
O=C(NC1CCC(O)CC1)c1ccc(Br)o1 (stereo not drawn)	-0.3	-2.8	x	x	-2	-161	27	10	1.6	x
Cc1cc(C)cc(N2C(=O)CC(N(C(=O)c3ccco3)c3cc(C)cc(C)c3)C2=O)c1 (stereo not drawn)	0.5	-7.9	-1	26	x	-3	x	x	x	-11
COc1cccc(-n2nnnc2SCC(=O)N2CCCc3ccccc32)c1	-0.3	4.3	-6	-9	-4	-1	x	x	x	15
COC(=O)c1cc2occc2n1Cc1nc(-c2cccc(Cl)c2)oc1C	0.1	0.1	-4	-7	-9	2	7	2	-5.2	13
O=C(/C=C/c1ccc([N+](=O)[O-])cc1)Nc1cccc(S(=O)(=O)NC2=NCCCCC2)c1	u	0.3	0	x	3	15	-9.4*	2.9*	3.2*	x
Nc1nc(NCc2ccccc2)n(-c2ccccc2)n1	0.8	3.6	17	22	-7	4	13	4	3.8	-5
O=C(COC(=O)c1ccc2c(c1)OCCO2)NC1CCCCC1	0.1	2.0	1	x	-2	-6	11	12	1.6	x
NC(=S)N/N=C/c1c[nH]c2ccccc12	-0.2	-1.5	99*	6	-2	6	4	2	-6.3	-4
COc1ccc2oc(=O)c(C(=O)N3CCCC3)cc2c1	-0.1	-6.4	-3	2	-2	-5	6	1	-3.4	3
COC(=O)c1ccc(Cl)c(NC(=O)NC23CC4CC(CC(C4)C2)C3)c1	1.9	0.8	-3	-6	x	2	x	x	x	51
CC(=O)Nc1ccc(NC(=O)C(C)OC(=O)c2cccc(S(=O)(=O)N3CCCC3)c2)cc1 (stereo not drawn)	0.4	-2.8	x	-2	-2	-3	0	-4	-1.8	-9
COC(=O)c1cc(C)nc2c1C(=O)C(=O)C=C2N1CCOCC1	-3.1	-4.4	4	18	104*	61*	10	10	1.3	67*
CCNC(=O)COC(=O)C1CCC(=O)N(c2ccc(OC)cc2)C1c1ccc(OC)cc1 (stereo not drawn)	0.0	-6.1	-4	-4	-6	-7	x	x	x	-2
Cc1[nH]c2ccccc2c1C(=O)C(=O)NC1CC(=O)N(c2ccc(F)cc2)C1 (stereo not drawn)	-0.3	-4.4	-4	x	-8	5	-5	-3	-0.2	-11
